Sa growth inh = inhibitors of Staphylococcus aureus growth at 42 °C; S. aureus RN4220 growth, OD600, 20 h; stronger effect = lower value; relative growth, % (test concentration not listed); actives 0.53% (n = 170,000); AID 720641;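 active means growth at 42 °C up to 50% and 20 or more points under that at 30 °C, or under 10% at both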;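 further: 300 nL library stock went into each well; scaled to the means of positive and negative controls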
HCMV NEC inh = inhibitors of HCMV UL50-UL53 nuclear egress complex interaction | actives 0.15% (n = 190,000) | inhibition, % (concentration not given with the values) | HTRF UL50-UL53 interaction, normalized percent inhibition;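 active means both replicates at 50% or more, plus weaker picks with an unusually low signal ratio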;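 further: stock transfer was 100 nL into about 20 µL; 0% = negative control wells and 100% = wells with untagged competitor protein; inactives centre near -12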
GIV Gai3 FP = inhibitors of GIV GBA-motif binding to rat Galpha-i3; P08753; Galpha-i3/FITC-GIV peptide fluorescence polarization, 90 min; stronger effect = lower value; scaled: aluminum fluoride 0%, vehicle 100%; percent of control (FP), % (concentration not given with the values); actives 0.42% (n = 210,000);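 active means replicate mean at 85% of control or lower, very high polarization wells dropped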;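 further: wells of about 15 µL received 100 nL stock; the first replicate is given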
Target sequence (P08753 whole entry, looked up): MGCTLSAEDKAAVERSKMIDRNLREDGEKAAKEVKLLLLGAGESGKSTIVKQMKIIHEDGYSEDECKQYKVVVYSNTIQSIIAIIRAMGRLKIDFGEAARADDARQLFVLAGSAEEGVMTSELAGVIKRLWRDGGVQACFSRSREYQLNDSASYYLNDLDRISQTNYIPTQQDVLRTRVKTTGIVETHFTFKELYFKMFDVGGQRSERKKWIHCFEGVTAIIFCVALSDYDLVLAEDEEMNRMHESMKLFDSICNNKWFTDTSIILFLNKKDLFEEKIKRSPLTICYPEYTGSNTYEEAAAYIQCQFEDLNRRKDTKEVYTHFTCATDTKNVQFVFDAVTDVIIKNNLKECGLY
Sa growth inh second temp = further read-out of Sa growth inh, marked with its call; relative growth, %; measured here: growth at 30 °C;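 optical density after 20 h as mean of two plates; 100% = untreated growth and lower means inhibition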
Starred values were filed as active, the others as inactive; . = no result given; & = joins results of further samples.

Abbreviations: A = Sa growth inh; B = Sa growth inh second temp; C = HCMV NEC inh; D = GIV Gai3 FP
Compound: O=C(CSC1=NC(=O)C(c2ccccc2)C(=O)N1)Nc1ccc(Cl)cn1 (stereo not given)
  A: 99	B: 91	C: -13	D: .

Compound: COc1cc(OC)cc(-c2cc3nc(C)c(CCC(=O)Nc4ccccc4OC)c(C)n3n2)c1
  A: 87	B: 87	C: -36	D: 102

Compound: Cc1ccc(-n2c(C)cc(C(=O)Cn3nc(C)c(C)c(C#N)c3=O)c2C)cc1C
  A: 99	B: 91	C: -12	D: .

Compound: Cc1[nH]c2ccc(-c3nnc(SCc4ccc(F)cc4)o3)cc2c1C
  A: 112	B: 100	C: -20	D: 104

Compound: Cc1ccc(SCC(=O)OCc2nc3ccccc3c(=O)n2CC#N)cc1
  A: 93	B: 95	C: 1	D: .

Compound: C1=CCC(CNCCCn2ccnc2)CC1 (stereo not given)
  A: 107	B: 90	C: -18	D: 103

Compound: CCCn1c2ccccc2c2cnn(CC(=O)NCCCN(CC)c3ccccc3)c(=O)c21
  A: 116	B: 90	C: .	D: 106

Compound: COc1ccccc1-c1coc2cc(OC(=O)c3ccco3)ccc2c1=O
  A: 93	B: 77	C: -15	D: 106

Compound: O=C(NCc1ccccc1)N1CCCCC1
  A: 106	B: 105	C: -15	D: 106

Compound: COc1cc2c(=O)n(Cc3ccc(C(=O)NC4CC4)cc3)c(=O)n(Cc3ccccc3)c2cc1OC
  A: .	B: .	C: -28	D: 104

Compound: CCOc1ccc(C(CC(=O)Nc2ccc(C(=O)OC)cc2)N2Cc3ccccc3C2=O)cc1OC (stereo not given)
  A: 97	B: 95	C: .	D: 102

Compound: COc1ccc(NC(=O)C2=CC(c3cccs3)=NS(=O)(=O)N2C)cc1
  A: 90	B: 77	C: -55	D: 105

Compound: CC(C)C(c1ccc(N(C)C)cc1)c1ccc(N(C)C)cc1
  A: 110	B: 110	C: -7	D: 102

Compound: CCOC(=O)C1=CN(c2ccc(F)cc2)C=C(C(=O)OCC)C1c1ccc(OC)c(Br)c1
  A: .	B: .	C: -2	D: 100

Compound: COc1ccc(N2Cc3cccc(C(=O)NC(C)CCc4ccco4)c3C2=O)cc1 (stereo not given)
  A: 95	B: 78	C: 5	D: 104

Compound: N#CCC(=O)NC(=O)NC12CC3CC(CC(C3)C1)C2
  A: 96	B: 105	C: 29	D: 109

Compound: COc1ccc(Cc2noc(N)n2)cc1
  A: 91	B: 86	C: .	D: 98

Compound: CCSc1nn(CC(=O)Nc2ccc(OC)c(Cl)c2)c(N)c1S(=O)(=O)c1ccc(C)cc1
  A: .	B: .	C: -23	D: 103

Compound: Cc1cc(C(=O)CSc2nccn2Cc2ccccc2)c(C)n1-c1ccc(S(N)(=O)=O)cc1
  A: 100	B: 80	C: -13	D: .

Compound: O=C(O)/C=C/C(=O)Nc1ccc(N2CCCCC2)cc1
  A: 73	B: 91	C: -11	D: .

Compound: O=C(O)CCCN1C(=O)C(=O)/C(=C(/O)c2ccccc2)C1/C=C/c1ccccc1 (stereo not given)
  A: 87	B: 92	C: -6	D: 98

Compound: COc1cccc(-c2ccc3c(N)c(C(=O)Nc4cc(C(F)(F)F)ccc4OC)sc3n2)c1
  A: 98	B: 106	C: 17	D: 103

Compound: O=C(CCCN1C(=O)c2cccnc2Oc2ccc(Cl)cc21)NCc1ccc(F)cc1
  A: 120	B: 90	C: .	D: 106

Compound: Cc1ccc(C(=O)Cc2cc3ccccc3oc2=O)cc1
  A: 113	B: 86	C: .	D: 95

Compound: CCOC(=O)c1cc(-c2ccc3c(c2)OCO3)nn1-c1cccc(C(=O)O)c1
  A: 70	B: 81	C: -2	D: .

Compound: Cc1cc(SCC(=O)N2CCCCC2)nc2ccccc12
  A: 104	B: 99	C: 5	D: .

Compound: CCC(=O)N1CCN(c2ccc(NCc3ccccc3)cc2)CC1
  A: 97	B: 78	C: -15	D: .

Compound: CCc1ccc(-c2nn(Cc3ccccc3)cc2C(=O)N2CCN(CCN3CCCC3)CC2)cc1
  A: 139	B: 91	C: -22	D: .

Compound: Cc1ccccc1C(=O)NC(=S)Nc1ccc(-c2nc3ccccc3o2)cc1
  A: 88	B: 81	C: .	D: 103

Compound: Cc1cc(C)c2c(n1)sc1c(=O)n(CC(=O)O)cnc12
  A: 90	B: 91	C: -9	D: .

Fetched by structure from the entries so far (4):
Abbreviations: A = Sa growth inh; B = Sa growth inh second temp; C = HCMV NEC inh; D = GIV Gai3 FP
Compound: Cc1ccc(C(=O)Cc2cc3ccccc3oc2=O)cc1
  A: 113	B: 86	C: .	D: 95

Compound: CCSc1nn(CC(=O)Nc2ccc(OC)c(Cl)c2)c(N)c1S(=O)(=O)c1ccc(C)cc1
  A: .	B: .	C: -23	D: 103

Compound: CCOc1ccc(C(CC(=O)Nc2ccc(C(=O)OC)cc2)N2Cc3ccccc3C2=O)cc1OC (stereo not given)
  A: 97	B: 95	C: .	D: 102

Compound: N#CCC(=O)NC(=O)NC12CC3CC(CC(C3)C1)C2
  A: 96	B: 105	C: 29	D: 109

Next section.
Abbreviations: A = Sa growth inh; B = Sa growth inh second temp; C = HCMV NEC inh; D = GIV Gai3 FP
Compound: O=C(Nc1cccc(Br)c1)c1cccc2c1C(=O)c1ccccc1-2
  A: 128	B: 91	C: .	D: 104

Compound: CC1CCCC(C)N1C(=O)COC(=O)c1cc(=O)[nH]c2ccccc12 (stereo not given)
  A: 99	B: 90	C: -83	D: .

Compound: CCn1cc(C(=O)c2ccccc2O)cc1-c1nc2cc(Cl)ccc2c(=O)[nH]1
  A: 95	B: 106	C: 8	D: .

Compound: Cc1ccc(-n2ccnc(NCCc3ccc(S(N)(=O)=O)cc3)c2=O)cc1C
  A: 82	B: 88	C: .	D: 104

Compound: Cn1c(SCC(=O)N2CCCC2)nnc1-c1c[nH]c2ccccc12
  A: 104	B: 89	C: -12&2	D: 102

Compound: COc1oc(-c2ccccc2)nc1C(F)(F)F
  A: 101	B: 96	C: -7	D: 106

Compound: COc1cc(/C=C2/C(=O)N(c3ccccc3)N=C2C)ccc1OS(=O)(=O)c1ccccc1
  A: .	B: .	C: 42*	D: 81*

Compound: CCCCSc1nc2c(c(=O)[nH]1)C(c1sccc1C)C(C(=O)OCC)=C(C)N2 (stereo not given)
  A: .	B: .	C: 5	D: 102

Compound: COc1cc2c(cc1OC)C(c1cc3cc4c(cc3[nH]c1=O)OCO4)N(C(=O)c1ccco1)CC2 (stereo not given)
  A: 121	B: 94	C: -7	D: 103

Compound: CC(=O)Nc1cc(C(=O)NCCN(C)C)ccc1Sc1ccc(C)cc1
  A: 84	B: 92	C: .	D: 110

Compound: Cc1ccc(-n2cc(C(=O)O)c3ccccc3c2=O)cc1
  A: .	B: .	C: -30	D: 97

Compound: Cn1c(=O)c2c(nc(CN3CCC(Cc4ccccc4)CC3)n2Cc2ccc(F)cc2)n(C)c1=O
  A: .	B: .	C: 7	D: 105

Compound: O=C(NC1CCCC1)C(c1ccccn1)N(C(=O)c1ccc2c(c1)OCCO2)c1ccccc1 (stereo not given)
  A: 111	B: 76	C: -8	D: 102

Compound: O=C(Cn1c2ccccc2c2cn[nH]c(=O)c21)NCc1ccco1
  A: 82	B: 82	C: -10	D: 102

Compound: N=C(N)SCc1cccc(CSC(=N)N)c1F
  A: 102	B: 96	C: 0	D: 104

Compound: CCOc1ccccc1N1CC(c2nc3ccccc3n2CCCOc2ccc(OC)cc2)CC1=O (stereo not given)
  A: 104	B: 82	C: -12	D: 109

Compound: CC(=O)Nc1ccc(S(=O)(=O)N2CCCC2C(=O)O)cc1 (stereo not given)
  A: 105	B: 93	C: -9	D: .

Compound: CCCSc1nnc2c(n1)OC(c1ccccc1)Nc1ccccc1-2 (stereo not given)
  A: .	B: .	C: -12	D: 109

Compound: CC1CCCCC1N(C)C1CCN(CCNC(=O)/C=C/c2ccccc2)CC1 (stereo not given)
  A: 79	B: 89	C: .	D: 99

Compound: Cc1cc(=O)n2ncnc2n1COCCO
  A: .	B: .	C: -5	D: 106

Compound: Cc1ccc2onc(CC(=O)Nc3cc(F)ccc3F)c2c1
  A: 98	B: 84	C: -15	D: 94

Compound: O=C(NCCc1ccc(Cl)cc1)c1ccc2c(Cl)c3c(nc2c1)CCCC3
  A: 94	B: 97	C: .	D: 100

Compound: O=C(Nc1cccc(Cl)c1)NC1(C(=O)Nc2ccc3c(c2)OCCO3)CCCCC1
  A: 117	B: 101	C: -8	D: 103

Compound: COC(=O)c1ccc(NC(=O)C2CCN(c3ncnc4c3nc3n4CCCCC3)CC2)cc1
  A: 107	B: 82	C: .	D: 103

Compound: O=C(NCCN1CCN(c2nccc(C(F)(F)F)n2)CC1)NC1CCCCC1
  A: 111	B: 86	C: -25	D: 103

Compound: O=c1sc2ccccc2n1CCOc1ccccc1
  A: 91	B: 100	C: 11	D: .

Compound: Cc1cccc(-n2cnc3cc(C(=O)NCc4ccccc4Cl)ccc32)c1
  A: 81	B: 69	C: .	D: 100

Compound: O=C1CC(c2nnc(Cc3ccccc3Cl)o2)CN1c1ccccc1 (stereo not given)
  A: 105	B: 96	C: 7	D: 104

Compound: CC1CCCCC1NC(=O)c1cc2c(s1)CS(=O)(=O)C2 (stereo not given)
  A: 92	B: 80	C: 2	D: 119

Compound: O=C(C(c1ccccc1)c1ccccc1)N(Cc1ccco1)Cc1cccs1
  A: 88	B: 87	C: -13	D: 102

Compound: COC(=O)C(F)(F)Sc1c(C)[nH]c2ccccc12
  A: 99	B: 84	C: .	D: 95

Compound: O=C(Nc1noc2ccccc12)c1ccccc1Br
  A: .	B: .	C: -23	D: 102

Compound: CC1CCCC(NC(=O)COC(=O)c2ccc3ccccc3n2)C1C (stereo not given)
  A: 102	B: 87	C: -41	D: .

Compound: O=C(O)/C=C/C(=O)NNc1nc2cc(S(=O)(=O)N3CCOCC3)ccc2o1
  A: 74	B: 91	C: -12	D: .

Compound: CCCC1CCC(C(=O)n2nc(N)c3cc4ccc(OC)cc4nc32)CC1 (stereo not given)
  A: 97	B: 94	C: .	D: 107

Compound: CCOC(=O)c1c(N)n(-c2cccc(C)c2C)c2nc3ccccc3nc12
  A: 108	B: 93	C: -26	D: 102

Compound: CCOC(=O)N1CCC(Nc2cc(C)c(C#N)c3nc4ccccc4n23)CC1
  A: 82	B: 92	C: -20	D: 107

Compound: COc1ccc(C2N=C(c3ccccc3C)NO2)cc1O (stereo not given)
  A: 87	B: 79	C: -27	D: .

Compound: Cc1cc(NC(=O)COC(Cc2ccccc2)C(F)(F)F)no1 (stereo not given)
  A: 96	B: 98	C: 3	D: 93

Compound: CC(C)CCn1c(CO)cnc1S(=O)(=O)C(C)C
  A: 92	B: 99	C: 2	D: 107

Compound: O=C1CC(c2nc3ccccc3n2CC(O)COc2ccccc2Cl)CN1c1ccccc1 (stereo not given)
  A: .	B: .	C: -14	D: 105

Compound: Cc1nc(N2CCN(C)CC2)c2c(C)c(C(=O)N3CCC(Cc4ccccc4)CC3)sc2n1
  A: .	B: .	C: -25	D: 107

Compound: CCCCSc1ncn[nH]1
  A: 99	B: 98	C: 2	D: 101

Compound: COc1ccc(S(=O)(=O)NCCSc2nnnn2-c2ccccc2)cc1
  A: 107	B: 96	C: -2	D: 105

Compound: CCOc1ccc(N=CC2=C(O)CNC2=O)cc1
  A: 92	B: 86	C: .	D: 98

Some of these compounds in order of heavy-atom count, lowest first:
Abbreviations: A = Sa growth inh; B = Sa growth inh second temp; C = HCMV NEC inh; D = GIV Gai3 FP
Compound: N#CCC(=O)NC(=O)NC12CC3CC(CC(C3)C1)C2
  A: 96	B: 105	C: 29	D: 109

Compound: COc1cccc(-c2ccc3c(N)c(C(=O)Nc4cc(C(F)(F)F)ccc4OC)sc3n2)c1
  A: 98	B: 106	C: 17	D: 103

Compound: O=C(NC1CCCC1)C(c1ccccn1)N(C(=O)c1ccc2c(c1)OCCO2)c1ccccc1 (stereo not given)
  A: 111	B: 76	C: -8	D: 102

Continuation.
Abbreviations: A = Sa growth inh; B = Sa growth inh second temp; C = HCMV NEC inh; D = GIV Gai3 FP
Compound: O=C(NCc1ccccc1)c1nn(-c2ccccc2)nc1CO
  A: 95	B: 97	C: -2	D: 105

Compound: COC(=O)c1ccc(S(=O)(=O)NCc2cccc(OC)c2)n1C
  A: 100	B: 81	C: .	D: 100

Compound: COC(=O)CSc1nc2cc3c(cc2cc1C#N)OCO3
  A: 86	B: 84	C: 3	D: 96

Compound: Cc1ccccc1NC(=O)CN1C(=S)NC(C)(C)CC1C (stereo not given)
  A: 95	B: 78	C: .	D: 99

Compound: Cc1ccc(CNC(=O)C2CCN(C(=O)c3ccc(-n4ccc5ccccc54)s3)CC2)cc1
  A: 104	B: 93	C: .	D: 101

Compound: Cc1cccc(CC(=O)N2CC(=O)Nc3ccc(F)cc3C2c2ccccc2)c1 (stereo not given)
  A: 109	B: 80	C: -3	D: 105

Compound: N#Cc1ccsc1/N=C/c1ccccc1
  A: .	B: .	C: -24	D: 106

Compound: COc1cc(NC(=O)C2CCCN(c3nc4ccccc4nc3C(F)(F)F)C2)cc(OC)c1 (stereo not given)
  A: .	B: .	C: -7	D: 102

Compound: N#Cc1ccc(CN2C(=O)c3ccccc3C2=O)cc1
  A: 77	B: 81	C: -23	D: .

Compound: Cc1nn(Cc2ccc(F)cc2)c(C)c1NC(=O)c1cnn2c1NC(c1ccco1)CC2C(F)(F)F (stereo not given)
  A: 87	B: 91	C: 0	D: 115

Compound: COc1ccc(C2CC(=O)NC(NC(=O)CN3C(=O)c4ccccc4C3=O)=N2)cc1 (stereo not given)
  A: 98	B: 88	C: -28	D: 103

Compound: O=c1[nH]cnc2c1oc1ccccc12
  A: 98	B: 92	C: -14	D: .

Compound: Cc1cc(I)c[nH]c1=O
  A: 95	B: 96	C: -12	D: 104

Source: PubChem
